High-throughput results (PubChem)
TSHR ag = qHTS Assay for Agonists of the Thyroid Stimulating Hormone Receptor; Thyrotropin receptor (Homo sapiens), P16473; 73,000 tested, 0.48% active; HEK293-CNG-TSHR cells (CNG channel as cAMP sensor), membrane potential dye, cAMP; Potency, µM (series often up to 57.1 µM), inactives show at the top dose activation, usual class: activators; active = well fitted activation curve of enough size with the parental cells flat; inconclusive = any curve in the parental cells; inactive = parental cells flat and receptor cells flat or falling; also: potency is read from the fitted curve at half-maximal effect; % of control where 0% means no effect; weak receptor curves with flat parental cells got no call and are not listed
Target sequence (P16473 whole entry, looked up): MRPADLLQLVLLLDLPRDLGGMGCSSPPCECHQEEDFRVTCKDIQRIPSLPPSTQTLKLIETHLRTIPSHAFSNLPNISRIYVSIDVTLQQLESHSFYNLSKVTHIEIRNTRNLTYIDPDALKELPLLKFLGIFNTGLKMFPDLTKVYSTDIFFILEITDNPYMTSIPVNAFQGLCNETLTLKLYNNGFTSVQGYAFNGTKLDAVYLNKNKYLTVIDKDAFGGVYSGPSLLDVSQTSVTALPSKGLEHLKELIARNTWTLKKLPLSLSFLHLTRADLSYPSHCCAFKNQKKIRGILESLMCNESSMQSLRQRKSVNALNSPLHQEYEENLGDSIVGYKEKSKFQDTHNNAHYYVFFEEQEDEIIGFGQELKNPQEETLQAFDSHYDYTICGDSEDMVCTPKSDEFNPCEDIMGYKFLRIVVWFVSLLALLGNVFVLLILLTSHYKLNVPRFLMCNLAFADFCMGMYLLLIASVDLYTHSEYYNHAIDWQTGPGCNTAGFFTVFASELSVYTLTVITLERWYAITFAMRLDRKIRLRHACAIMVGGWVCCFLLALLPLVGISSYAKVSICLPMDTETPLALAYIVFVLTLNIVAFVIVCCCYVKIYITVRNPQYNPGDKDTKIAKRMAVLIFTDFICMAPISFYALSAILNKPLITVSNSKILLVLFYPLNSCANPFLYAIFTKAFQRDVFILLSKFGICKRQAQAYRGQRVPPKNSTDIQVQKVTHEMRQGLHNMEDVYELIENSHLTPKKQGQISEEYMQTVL
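cAMP rise detected as CNG-channel membrane depolarization by fluorescent dye (emission 590 nm), 30 min after compound, following 60 min dye loading containing 100 uM RO 20-1724 at room temperature. Cells: TSHR/CNG HEK 293, with parental CNG HEK 293 as control.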
A488 autofl = qHTS Assay for Spectroscopic Profiling in A488 Spectral Region; max dye equivalency, M; 59,000 tested, 0.1% active; compound autofluorescence, A488 spectral region, dye equivalency; active compounds read high; AID 591, 2007; active = above 10 nM dye equivalent; inconclusive = 1 to 10 nM; inactive = 1 nM or less; about half of its hits are not listed in these tables;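 also: highest value over a series up to 38 µM; compound alone in buffer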
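Autofluorescence read at ex 480/em 540 nm after 15 min RT in 100 mM Tris pH 8.0; compound signal normalized to A488 standard series on each plate, reported as dye-equivalent concentration at each test concentration.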
AID923 = qHTS Assay for Allosteric/Competitive Inhibitors of Caspase-1: Spectroscopic Profiling in AFC Spectral Region; compound fluorescence, AFC spectral region (405/520 nm); almost no hit is shown here; Potency, µM (titrated, usually from 57.5 µM), for the others: top-dose fluorescence increase, actives largely listed as activators; 75,000 tested, 1.1% active; active = well fitted activation curve with a large enough effect; inconclusive = small, poorly fitted or top-dose-only effect;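 also: potency is read from the fitted curve at half-maximal effect; 0% is about no effect; scaled to a free AFC standard on each plate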
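Compound autofluorescence profiled at 405 nm ex/520 nm em during kinetic caspase 1 run (50 nM enzyme, 5 uM Ac-WEHD-AFC, HEPES pH 7.5, 10 mM DTT). Titration up to 57 uM; baseline from regression intercept, normalized to AFC standard curve.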
A647 autofl = qHTS Assay for Spectroscopic Profiling in A647 Spectral Region; Compound fluorescence, A647 channel (570/671 nm), Tris buffer; max dye-equivalent concentration, M; 59,000 tested, under 10 active; active means above 1 µM dye equivalent; inconclusive means 0.1 to 1 µM; inactive means 0.1 µM or less;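 also: values scaled relative to a standard on each plate; highest value over a series up to 38 µM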
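Tris 100 mM pH 8.0; cpd + A647 stds pin-transferred; 15 min RT; CCD imager, ex 570/em 671. Output = A647-equivalent conc. per cpd conc.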
Resorufin autofl = qHTS Assay for Spectroscopic Profiling in Resorufin Spectral Region. Compound fluorescence, resorufin region 547/598 nm, buffer; active compounds read high. max dye-equivalent concentration, M. 59,000 tested, 0.04% active; active = above 10 nM dye equivalent; inconclusive = 1 to 10 nM; inactive = 1 nM or less; a few of its hits are not listed in these tables; also: highest value over a series up to 38 µM
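Read-out: intrinsic compound fluorescence at ex 547/em 598 nm after 15 min at RT in pH 8.0 Tris (100 mM). Values expressed as resorufin-equivalent concentration from per-plate standard series.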
* = called active by the depositor; [ ] = dose if it differs, or a comment.

Screening O=C1NCC2=C1C(c1ccc(Br)cc1)Nc1ccccc1N2 (stereo not drawn) returned TSHR ag 3%[11.4 µM] and AID923 1.9%.
COc1ccc(-c2nnc(CSc3nc4ccccc4c(=O)n3CC3CCCO3)o2)cc1OC (stereo not drawn) was read as TSHR ag inconclusive, A488 autofl inactive, AID923 -0.7%, A647 autofl 1e-09 and Resorufin autofl inactive.
`COCC(C)OC(=O)C(C#N)c1nc2ccccc2nc1N1CCN(Cc2ccccc2)CC1` (stereo not drawn) gave TSHR ag inconclusive, A488 autofl inactive, AID923 8.8%, A647 autofl 4.1e-09 and Resorufin autofl inactive.
For CC(=O)Nc1cccc(OCC(=O)NS(=O)(=O)c2ccc(Cl)cc2)c1 the results were TSHR ag 2%, A488 autofl inactive, AID923 -2.2%, A647 autofl 3.4e-08 and Resorufin autofl inactive.
For N#CCSc1nnc(COc2ccc3ccccc3c2)o1 the results were TSHR ag 3%, A488 autofl inactive, AID923 -1.8%, A647 autofl 3.6e-09 and Resorufin autofl inactive.
C/C(=N\S(=O)(=O)c1ccc(C)cc1)N1CCN(S(=O)(=O)c2ccccc2)C1 was read as TSHR ag 4%, A488 autofl inactive, AID923 1.4%, A647 autofl 1e-09 and Resorufin autofl inactive.
`O=C(CSc1nnc2scc(-c3ccc(Cl)cc3)n12)NCc1ccc2c(c1)OCO2` gave TSHR ag inconclusive, A488 autofl inactive, AID923 -1.1%, A647 autofl 2.3e-08 and Resorufin autofl inactive.
Screening COC(=O)c1ccc(Oc2nc(NC(C)C)nc(SC)n2)cc1 returned TSHR ag inconclusive, A488 autofl inactive, AID923 0.8%, A647 autofl 2.7e-09 and Resorufin autofl inactive.
For O=C(c1cc(C(F)(F)F)cc(C(F)(F)F)c1)N1CCC2(CC1)CN(Cc1ccncc1)C2 the results were TSHR ag 6%, A488 autofl inactive, AID923 -5.1%, A647 autofl 1e-09 and Resorufin autofl inactive.
CC(NC(=O)c1cccnc1)C(c1cccs1)N1CCOCC1 (stereo not drawn) was read as TSHR ag -5%, A488 autofl inactive, AID923 2.0%, A647 autofl 1.2e-08 and Resorufin autofl inactive.
CC(N)=O was read as TSHR ag 6%, A488 autofl inactive, AID923 -1.9%, A647 autofl 6.2e-09 and Resorufin autofl inactive.
`CN(C)S(=O)(=O)c1ccc2c(c1)/C(=C/c1cc3c([nH]1)CCCC3)C(=O)N2` gave TSHR ag -22%, A488 autofl inactive, AID923 -0.4%, A647 autofl 2.6e-08 and Resorufin autofl inactive.
Screening Cc1cc(=O)n2[nH]c(-c3ccc(Cl)cc3)cc2n1 returned TSHR ag -6%, A488 autofl inactive, AID923 0.9%, A647 autofl 3.1e-08 and Resorufin autofl inactive.
CCC(c1nnc(SCCNCCO)n1CCN1CCOCC1)N(C)C (stereo not drawn) was read as TSHR ag 0%, A488 autofl inactive, AID923 -0.1%, A647 autofl 3.3e-08 and Resorufin autofl inactive.
For O=S(=O)(c1ccc2c(c1)OCCO2)N1CCC(O)(c2ccc(Cl)cc2)CC1 the results were TSHR ag 4%, A488 autofl inactive, AID923 1.7%, A647 autofl 6.1e-08 and Resorufin autofl inactive.
For O=C(CSc1nc(-c2ccccc2)cc(=O)[nH]1)N1CCc2ccccc21 the results were A488 autofl inactive, AID923 -1.8%, A647 autofl 1e-09 and Resorufin autofl inactive.
`Cc1cccc(NC(=O)CN2CCN(CC(=O)Nc3cccc(C)c3)CC2)c1` gave TSHR ag 6% and AID923 3.3%.
For O=C(CCc1ccccc1)N1CCN(CCO)CC1 the results were TSHR ag inconclusive and AID923 -1.7%.
For CC(OC(=O)c1nsc(Cl)c1Cl)C(=O)NCc1ccco1 (stereo not drawn) the results were TSHR ag 9%, A488 autofl inactive, AID923 1.0%, A647 autofl 1.8e-08 and Resorufin autofl inactive.
`Cc1cccc(CN2CCN(C(c3ccccc3)c3ccc(Cl)cc3)CC2)c1` (stereo not drawn) gave A488 autofl inactive, AID923 3.0%, A647 autofl 1.6e-08 and Resorufin autofl inactive.
Screening Cc1cc(=O)oc2cc(Oc3ncccn3)ccc12 returned TSHR ag -6%, A488 autofl inactive, AID923 11%, A647 autofl 5.3e-09 and Resorufin autofl inactive.
Screening C=CCN1C(=O)/C(=C2\SC(N3CCOCC3)=NC2=O)c2cc(Br)ccc21 returned TSHR ag -27%, A488 autofl inactive, AID923 0.4%, A647 autofl 2.9e-08 and Resorufin autofl inactive.
For CC(C)(C)Cc1nnc(NS(=O)(=O)c2ccc(F)cc2)s1 the results were TSHR ag -5%, A488 autofl inactive, AID923 0.7%, A647 autofl 6.2e-09 and Resorufin autofl inactive.
O=c1n(CC2CO2)c(=O)n(CC2CO2)c(=O)n1CC1CO1 (stereo not drawn) was read as TSHR ag 1% and AID923 -3.1%.
`Cn1nc(-c2ccc(C(=O)NCC3CCCO3)cc2)c2ccccc2c1=O` (stereo not drawn) gave TSHR ag 0%, A488 autofl inactive, AID923 2.7%, A647 autofl 7.9e-09 and Resorufin autofl inactive.
Screening Cc1cc(C)n2nc(-c3cccnc3)nc2n1 returned TSHR ag -6%, A488 autofl inactive, AID923 -2.6%, A647 autofl 3.6e-08 and Resorufin autofl inactive.
`COc1ccc(-n2c(=O)cc(N3CCN(c4ccccc4OC)CC3)[nH]c2=O)cc1` gave TSHR ag 5%, A488 autofl inactive, AID923 -0.9%, A647 autofl 1.5e-09 and Resorufin autofl inactive.
CC(=O)NCCNc1ncnc2ccc(-c3ccc4c(c3)OCO4)cc12 was read as TSHR ag 0%, A488 autofl inactive, AID923 1.2%, A647 autofl 1e-08 and Resorufin autofl inactive.
Screening O=C(CCCn1c(=O)[nH]c2ccsc2c1=O)N1CCCCC1 returned TSHR ag 2%, A488 autofl inactive, AID923 -0.4%, A647 autofl 1e-09 and Resorufin autofl inactive.
`CCOC(=O)N/N=C1/C[C@@H](O)[C@@H](O)[C@@H]2[C@H]3C(=O)N(c4ccc(F)cc4F)C(=O)[C@@H]3CC[C@H]12` gave TSHR ag 0%[11.4 µM] and AID923 1.6%[11.5 µM].
Cc1ccc(CNC(=O)CSc2nc(N3CCCCC3)nc(N3CCCCC3)n2)cc1 was read as TSHR ag inconclusive, A488 autofl inactive, AID923 -3.7%, A647 autofl 2.8e-08 and Resorufin autofl inactive.
Screening CCOC(=O)N1CCN(C(=O)Cn2ncn3nc(-c4cccs4)cc3c2=O)CC1 returned TSHR ag -1%, A488 autofl inactive, AID923 -0.3%, A647 autofl 7.9e-09 and Resorufin autofl inactive.
Nc1cc(Cl)c(NC2=NCCN2)c(Cl)c1 was read as A488 autofl inactive, AID923 -4.1%, A647 autofl 3.4e-09 and Resorufin autofl inactive.
For CS(=O)(=O)N(CC(N)=O)c1ccc(F)c(Cl)c1 the results were TSHR ag -4%, A488 autofl inactive, AID923 1.1%, A647 autofl 1e-09 and Resorufin autofl inactive.
For CCN(CC)CCNC(=O)c1c(C)oc2cc(Br)c(OC)cc12 the results were A488 autofl inactive, A647 autofl 2.3e-08 and Resorufin autofl inactive.
Screening Cc1cc(=O)oc(C)c1C(=O)NCCCN1CCN(c2ccc(F)cc2)CC1 returned TSHR ag 5%, A488 autofl inactive, AID923 -1.8%, A647 autofl 1.1e-08 and Resorufin autofl inactive.
For CC(=O)N1CCN(CC(=O)Nc2c(Cl)cccc2Cl)CC1 the results were TSHR ag -2%, A488 autofl inactive, AID923 0.4%, A647 autofl 1e-09 and Resorufin autofl inactive.
For CCCCC(=O)Nc1ccc2c(c1)OCCO2 the results were TSHR ag 1%, A488 autofl inactive, AID923 -3.2%, A647 autofl 3.7e-08 and Resorufin autofl inactive.
Screening FC(F)(F)c1ccccc1-c1cncnc1NCc1cccnc1 returned TSHR ag 19%, A488 autofl inactive, AID923 1.7%, A647 autofl 5.6e-09 and Resorufin autofl inactive.
Cc1ccn2cc(CCNC(=O)c3ccc(Br)o3)nc2c1 was read as TSHR ag -1% and AID923 4.2%.

5 structures already listed, arranged by count of non-hydrogen atoms, descending:
Cc1ccc(CNC(=O)CSc2nc(N3CCCCC3)nc(N3CCCCC3)n2)cc1 was read as TSHR ag inconclusive, A488 autofl inactive, AID923 -3.7%, A647 autofl 2.8e-08 and Resorufin autofl inactive.
`COc1ccc(-n2c(=O)cc(N3CCN(c4ccccc4OC)CC3)[nH]c2=O)cc1` gave TSHR ag 5%, A488 autofl inactive, AID923 -0.9%, A647 autofl 1.5e-09 and Resorufin autofl inactive.
For CCN(CC)CCNC(=O)c1c(C)oc2cc(Br)c(OC)cc12 the results were A488 autofl inactive, A647 autofl 2.3e-08 and Resorufin autofl inactive.
For CC(C)(C)Cc1nnc(NS(=O)(=O)c2ccc(F)cc2)s1 the results were TSHR ag -5%, A488 autofl inactive, AID923 0.7%, A647 autofl 6.2e-09 and Resorufin autofl inactive.
For CS(=O)(=O)N(CC(N)=O)c1ccc(F)c(Cl)c1 the results were TSHR ag -4%, A488 autofl inactive, AID923 1.1%, A647 autofl 1e-09 and Resorufin autofl inactive.

Further results:
`Cc1oc(C)c(C(N)=O)c1C(N)=O` gave TSHR ag -6%, A488 autofl inactive, AID923 -0.7%, A647 autofl 1.8e-08 and Resorufin autofl inactive.
`O=C(CN1C(=O)COc2ccc(Cl)cc21)Nc1ccc2c(c1)OCCO2` gave TSHR ag 15%, A488 autofl inactive, AID923 -0.4%, A647 autofl 3.7e-08 and Resorufin autofl inactive.
For CCc1nnc(NCn2nc(C)cc2C)s1 the results were TSHR ag 2% and AID923 2.9%.
Cc1cc(NC(=O)Cn2nc(C(F)(F)F)c3c2CCC3)n(-c2ccccc2)n1 was read as TSHR ag inconclusive, A488 autofl inactive, AID923 -1.0%, A647 autofl 1.7e-09 and Resorufin autofl inactive.
`S=C(CSc1ccccc1)Nc1cccc2ccccc12` gave TSHR ag 7%[11.4 µM], A488 autofl inactive, AID923 -2.0%[11.5 µM], A647 autofl 1.7e-09 and Resorufin autofl inactive.
Cc1nn(Cc2ccccc2Cl)c(C)c1C(=O)NCc1ccco1 was read as TSHR ag 12%, A488 autofl inactive, AID923 0.2%, A647 autofl 1e-09 and Resorufin autofl inactive.
CCCCOc1ccccc1NC(=O)CC1Nc2ccccc2NC1=O (stereo not drawn) was read as TSHR ag 11%[11.4 µM] and AID923 8.8%.
c1csc(CNc2ccnc(-c3ccc4c(c3)OCO4)n2)c1 was read as TSHR ag inconclusive, A488 autofl inactive, AID923 0.1%, A647 autofl 1e-09 and Resorufin autofl inactive.
For COc1cccc(N2CCN(c3c4c(nc5ncnn35)CCC4)CC2)c1 the results were TSHR ag 20%, A488 autofl inactive, AID923 -1.3%, A647 autofl 4.8e-09 and Resorufin autofl inactive.
For COC(=O)C(C(=O)OC)N1C(=O)CCC1=O the results were TSHR ag 2%, A488 autofl inactive, AID923 -0.2%, A647 autofl 4.1e-08 and Resorufin autofl inactive.
`COc1ccc(Oc2coc3c(CN(C)C)c(O)ccc3c2=O)cc1` gave TSHR ag 7% and AID923 7.1%.
For COc1c(C)cccc1C(=O)Nc1cc(Cl)ccc1N1CCOCC1 the results were TSHR ag inconclusive, A488 autofl inactive, AID923 0.7%, A647 autofl 2.7e-09 and Resorufin autofl inactive.
Screening Cn1nnc(NC(=O)COc2ccc(C3CCCCC3)cc2)n1 returned TSHR ag 14%, A488 autofl inactive, AID923 -1.9%, A647 autofl 9e-09 and Resorufin autofl inactive.
Screening CCCCC1(COC(=O)CCC(=O)O)C(=O)N(c2ccccc2)N(c2ccccc2)C1=O returned TSHR ag 9%[25.6 µM], A488 autofl inactive, AID923 -2.2%, A647 autofl 1.9e-08 and Resorufin autofl inactive.
`CSc1nc2ccc(S(=O)(=O)Nc3c(C)n(C)n(-c4ccccc4)c3=O)cc2s1` gave TSHR ag 14%, A488 autofl inactive, AID923 0.5%, A647 autofl 1e-09 and Resorufin autofl inactive.

An excerpt; rates above refer to the full screens.
